# Screening data deposited in PubChem BioAssay by National Center for Advancing Translational Sciences (NCATS).
# Rango complex inh = Rango-importin beta binding inhibition | Potency, µM (series often up to 92.2 µM), inactives show top-dose inhibition of complex formation | AID 540263 | Rango CFP/YFP FRET sensor + importin beta, 45 min | 340,000 tested, 0.031% active; active = rising FRET ratio curve, often small or poorly fitted; inconclusive = mostly compound fluorescence or quenching in the first reads; inactive = flat curves in all reads;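 further: potency means the concentration at half of the fitted maximal effect; 0% = DMSO wells and 100% = buffer wells lacking importin beta; nearly all actives have a fitted effect of over 15% in size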
# Target sequence (Q14974 whole entry, looked up): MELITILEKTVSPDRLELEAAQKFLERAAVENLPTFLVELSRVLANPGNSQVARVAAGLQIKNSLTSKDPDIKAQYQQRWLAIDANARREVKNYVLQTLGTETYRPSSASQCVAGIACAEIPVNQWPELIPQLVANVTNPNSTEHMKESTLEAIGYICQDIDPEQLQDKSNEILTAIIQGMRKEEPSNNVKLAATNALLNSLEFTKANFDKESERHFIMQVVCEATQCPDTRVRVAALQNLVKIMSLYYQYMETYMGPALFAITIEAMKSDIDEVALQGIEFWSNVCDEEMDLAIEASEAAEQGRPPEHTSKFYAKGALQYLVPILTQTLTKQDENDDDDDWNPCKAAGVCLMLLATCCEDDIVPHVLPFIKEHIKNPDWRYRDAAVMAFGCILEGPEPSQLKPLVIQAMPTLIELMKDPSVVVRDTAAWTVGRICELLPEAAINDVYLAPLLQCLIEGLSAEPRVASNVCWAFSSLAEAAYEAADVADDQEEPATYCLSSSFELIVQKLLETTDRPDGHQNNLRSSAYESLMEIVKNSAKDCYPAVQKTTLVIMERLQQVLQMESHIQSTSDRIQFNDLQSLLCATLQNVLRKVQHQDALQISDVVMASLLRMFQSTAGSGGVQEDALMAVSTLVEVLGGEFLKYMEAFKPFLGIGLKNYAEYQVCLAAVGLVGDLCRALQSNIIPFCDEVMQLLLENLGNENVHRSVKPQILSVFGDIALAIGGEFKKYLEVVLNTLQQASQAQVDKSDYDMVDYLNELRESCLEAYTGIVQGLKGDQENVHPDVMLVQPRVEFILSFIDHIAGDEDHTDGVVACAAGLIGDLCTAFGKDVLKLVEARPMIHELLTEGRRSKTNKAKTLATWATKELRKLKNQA
#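 Inhibition scored from the CFP 486 nm/YFP 530 nm FRET ratio 45 min after adding 0.125 microM importin beta to 50 nM Rango biosensor preincubated 5 min with compound (room temperature, PBS with DTT, Tween-20, BSA). No-importin wells as positive control.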
# Rango release inh = inhibitors of RanGTP-induced Rango-importin beta complex dissociation. 340,000 tested, 0.071% active. AID 540253. Potency, µM (series often up to 46.1 µM), for the others: at the top dose activity change, negative = inhibition. Biochemical FRET Rango-importin beta, RanGTP-induced dissociation. O95149+P62826; active means falling FRET ratio curve, often poorly fitted, with flat reads before Ran was added; inconclusive means other falling curves, or compound fluorescence or quenching; inactive means flat or rising ratio curve;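 further: potency means the concentration at half of the fitted maximal effect; % of control where 0% means no effect; nearly all actives have a fitted effect of over 45% in size; -100% = wells without RanGTP and RCC1; the record marks most hits as doubtful in a second field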
#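 Quantitative HTS using a FRET biosensor: 0.1 uM Rango, 0.25 uM importin beta, 0.6 uM Ran, 2 mM GTP, 0.2 uM RCC1 final, PBS with DTT, Tween-20 and BSA. Post-read taken 45 min after Ran addition.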
# miR-21 FLuc = raises the signal of a miR-21 reporter. 340,000 tested, under 10 active. HeLa miR-21 FLuc reporter, luciferase, 48 h. Potency, µM (doses to about 38.3 µM), for inactives: top-dose reporter change, positive = more light; active = well fitted rising curve with a large enough effect; inconclusive = small, poorly fitted or top-dose-only effect; inactive = no such curve, though single readings can be large or run the other way;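 further: % of control where 0% means no effect; miR-21 action dims this reporter so a rising signal means less miR-21 action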
#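 HeLa cells endogenously expressing miR-21, stably carrying CMV-driven firefly luciferase with a downstream miR-21 binding site, 2000 cells/well. Titrations up to approximately 40 uM, 48 hours; luciferase luminescence read.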
# GLA inh pH 4.5 = alpha-galactosidase A (human) inhibition, pH 4.5 | P06280 | activity change, negative = inhibition, % at 105 µM | AID 1467 | 230,000 tested, under 10 active | purified enzyme, 4-MU-alpha-Gal fluorescence, pH 4.5; inconclusive = small, poorly fitted or top-dose-only inhibition, or a rising curve; inactive = flat fitted curve, though single readings scatter; no compound was filed as active;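 further: 0% = full activity with enzyme and -100% = basal without enzyme; dose as in the result columns while the protocol names 77 µM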
# The depositor's hits bear a star; ? = inconclusive; . = no result given; & = joins results of further samples. This is a subset. The share of hits here may be higher or lower than overall.
Rango complex inh	Rango release inh	miR-21 FLuc	GLA inh pH 4.5	Molecule
-4.0%	-11.2%	-19.5%	?	COc1ccc(OC)c(C=Nc2ccccc2-c2nc3ccccc3[nH]2)c1
-0.2%	17.0%	.	.	CC1(NC(=O)Nc2cc([N+](=O)[O-])ccc2O)CCS(=O)(=O)C1 (stereo not given)
2.5%	-22.9%	0.0%	1.9	COC(=O)c1oc2ccc(Br)cc2c1NC(=O)c1ccccc1
0.1%	6.9%	2.2%	-11.4	CCCNS(=O)(=O)c1ccc(Oc2ncc(C(F)(F)F)cc2Cl)cc1
-0.7%	2.8%	.	.	O=C(NCc1cccnc1)c1cccc(NS(=O)(=O)c2ccc(Br)cc2)c1
.	.	-8.4%	-4.4	COc1ccccc1C1=Nn2c(COc3ccccc3)nnc2SC1
0.9%	29.7%	0.6%	-7.6	[O-][n+]1onc2c1CCc1nnccc1-2
3.2%	21.0%	2.9%	0.1	O=C(O)CCn1c(=O)n(CCC(=O)O)c(=O)n(CCC(=O)O)c1=O
4.2%	14.9%	.	.	C=CC[C@]12C=C(OC)C(=O)C=C1O[C@@H](c1ccc3c(c1)OCO3)[C@H]2C
-2.1%	-6.4%	.	.	Cc1cccc(NS(=O)(=O)c2ccc(C(=O)N3CC(C)OC(C)C3)cc2)c1C (stereo not given)
-1.7%	1.7%	-2.1%	0.6	O=C(CCCn1c(=O)oc2ccccc21)Nc1cccnc1
2.5%	10.1%	.	.	COc1cccc(C2=CC(=O)C[C@H](c3ccc(Cl)cc3)C2)c1
-1.1%	-7.3%	-1.4%	.	CS(=O)(=O)Oc1ccc2c(c1)O/C(=C\c1cccc([N+](=O)[O-])c1)C2=O
-0.1%	-2.6%	-2.5%	4.9	CCOC(=O)N1CCC2(CC1)CC(=O)c1c(ccc3oc(C(=O)O)c(C)c13)O2
0.2%	6.7%	.	.	CC[C@H]1C/C=C\Cc2ccccc2[C@@H](C(=O)C[C@@H](O)CC(C)=O)OC1=O
5.7%	30.5%	-1.0%	.	COc1ccc(N(CC(=O)NCCSCc2cccc(Cl)c2)S(C)(=O)=O)cc1Cl
0.8%	-17.5%	-4.6%	.	CC(C)NC(=O)N1CCC(c2nc3ccccc3s2)CC1
1.9%	16.1%	-1.3%	-7.3	COc1cc(NC(=O)COC(=O)/C=C/c2c(C)nn(-c3ccc(F)cc3)c2Cl)cc(OC)c1
-6.5%	22.1%	.	.	O=C(NCC1CCCCC1)c1cc(S(=O)(=O)N2CCCCC2)ccc1Cl
-4.4%	-7.5%	.	.	O=C(NCCC1CCCCN1S(=O)(=O)c1cccs1)C(=O)Nc1ccccc1F (stereo not given)
2.6%	2.6%	-31.7%	-15.4	C=CCn1cccc(C(=O)Nc2ccc(OC)c(OC)c2)c1=O
0.7%	13.7%	-8.4%	.	Cc1c(CC(=O)NCCCC(=O)O)c(=O)oc2cc3occ(-c4ccccc4)c3cc12
-0.1%	0.9%	.	.	CC1CCN(C(=O)CN2c3cccc4cccc(c34)S2(=O)=O)CC1
5.8%	9.2%	-4.9%	-6.1	CCOC(=O)C1CCCN(c2ccc(NC(=O)c3snc4c(=O)[nH]c(C)nc34)cc2)C1 (stereo not given)
-0.2%	4.7%	4.2%	3.5	Cc1ncoc1C(=O)N1CCCC(CCC(=O)NCc2ccccc2F)C1 (stereo not given)

# Next section; the last three above are carried over.
Rango complex inh	Rango release inh	miR-21 FLuc	GLA inh pH 4.5	Molecule
-0.1%	0.9%	.	.	CC1CCN(C(=O)CN2c3cccc4cccc(c34)S2(=O)=O)CC1
5.8%	9.2%	-4.9%	-6.1	CCOC(=O)C1CCCN(c2ccc(NC(=O)c3snc4c(=O)[nH]c(C)nc34)cc2)C1 (stereo not given)
-0.2%	4.7%	4.2%	3.5	Cc1ncoc1C(=O)N1CCCC(CCC(=O)NCc2ccccc2F)C1 (stereo not given)
-1.2%	15.7%	12.5%	-31.4	O=[N+]([O-])c1ccc(Oc2ccc(F)cc2Br)c2ccncc12
-2.1%	?	-5.5%	0.0	CC(C)OC(=O)CSc1nc2cccnc2n1-c1ccc(F)cc1
0.4%	?	-12.3%	-4.5	COC(=O)c1ccccc1NC(=O)CSc1ccccn1
4.5%	9.6%	1.5%	4.9	N#CCC(=O)N/N=C1\CCCCC1C1CCCCC1 (stereo not given)
1.6%	7.7%	-3.1%	-4.9	COc1ccc(C(CC(=O)NCc2ccco2)c2ccc(F)cc2)cc1 (stereo not given)
1.1%	5.8%	14.3%	.	CCc1ccc(-c2cc(C)no2)cc1S(=O)(=O)N1CCOc2ccc(C)cc21
-1.4%	14.1%	-0.5%	3.1	O=C(c1cccc(F)c1)N(Cc1nc2ccccc2c(=O)[nH]1)C1CCCC1
-3.4%	-8.4%	-51.5%	3.4	CC(=O)c1csc(Nc2ccccc2Cl)n1
-1.4%	-6.6%	-1.5%	-23.9	Cc1ccc(CN2CCC(CO)(CC3CCCCO3)CC2)o1 (stereo not given)
0.0%	-0.6%	-14.6%	0.3	COc1ccc(-c2nc(CS(=O)(=O)CC(=O)Nc3ccc(Cl)cc3)c(C)o2)cc1
-2.5%	-0.5%	-1.1%	-8.1	CCNc1ccc(S(=O)(=O)N(C)C)cc1NCC(=O)Nc1ccccc1F
0.2%	-8.3%	-12.2%	6.5	O=C1CC(N2CCC(C(=O)N3CCCCC3)CC2)C(=O)N1 (stereo not given)
0.0%	0.1%	.	.	Cc1ccc(S(=O)(=O)N2CCN(C(=O)c3cc(S(=O)(=O)N(C)C)ccc3N3CCCC3)CC2)cc1
4.4%	1.8%	.	.	CN(Cc1ccccc1)C(=O)COC(=O)c1cc(=O)c2ccccc2o1
1.2%	6.7%	.	.	NC(=O)Cn1c(S(=O)(=O)Cc2ccccc2)nc2ccccc21
0.0%	-10.7%	18.4%	4.2	O=C(c1cccc(S(=O)(=O)NCCOc2ccccc2)c1)N1CCN(c2ncccn2)CC1
-2.4%	-5.6%	-5.0%	-4.4	Cc1oc(-c2ccccc2)nc1C(=O)OCC(=O)NC(=O)NCC(C)C
1.7%	-10.9%	-33.1%	9.3	O=C(Nc1cccc(F)c1)c1ccc(CSc2ccccc2)o1
4.1%	10.2%	-13.2%	-7.1	Cc1ccc(CSc2nnc(C)c(=O)[nH]2)cc1
-4.0%	-5.9%	.	.	CCOC(=O)C1CCN(C(=O)COC(=O)c2c(C)c(CC)nc3ccccc23)CC1
2.3%	2.3%	-4.4%	2.1	CCSc1nnc(NC(=O)C2CC=CCC2C(=O)O)s1 (stereo not given)
-0.2%	1.5%	2.5%	.	Cc1ccc2c(c1)N(C(=O)CCC(=O)N1CCC(C(N)=O)CC1)CCO2
4.7%	1.0%	.	.	O=C(O)C[C@H]1c2ccccc2S(=O)(=O)N1C1CCCC1
0.4%	-7.2%	-19.3%	3.3	O=C(CSc1nnc(-c2c[nH]c3ccccc23)o1)c1ccccc1
4.5%	2.5%	1.7%	.	CC(C)(C)OC(=O)N[C@@H](Cc1ccccc1)C(=O)N1CCC(C(=O)N[C@@H](CCC(N)=O)C(=O)O)CC1
-3.6%	8.4%	-5.3%	3.2	O=C(O)c1cnc(-c2ccccc2)nc1Oc1ccccc1
?	9.2%	-3.1%	-2.7	NNC(=O)CS(=O)(=O)c1ccc(Cl)cc1
-0.7%	6.2%	-3.5%	8.2	CC(=O)Nc1c(C(=O)N2CCN(c3ccccn3)CC2)cnn1-c1ccc(C)cc1
1.6%	-7.5%	-9.6%	1.5	COc1cccc(/C=N\NC(=O)c2sc(N)nc2C)c1OC
-0.2%	1.3%	-1.6%	4.0	CC(C)[C@H](CO)Nc1nc(Nc2ccc(Cl)c(C(=O)O)c2)c2ncn(C(C)C)c2n1
-5.0%	-5.8%	.	-0.1&-2.3	CCCN(CC1CC1)c1nc(C)nc(Nc2c(Cl)cc(Cl)cc2Cl)c1Cl
2.1%	10.9%	13.0%	-18.7	CCC(C)(c1nnnn1-c1c(C)cccc1C)N(N=O)c1ccccc1Cl (stereo not given)
1.3%	-13.2%	-14.6%	5.2	COc1ccc(NC(=O)CN(c2ccc(C)cc2)S(C)(=O)=O)c(OC)c1
2.4%	-8.7%	.	.	CCCCn1c(N)c(N(CC(C)C)C(=O)CSCc2c(C)noc2C)c(=O)[nH]c1=O
-2.6%	-7.6%	.	.	COc1cc(NC(=O)CN2C(=O)NC3(CCOc4ccccc43)C2=O)cc(OC)c1 (stereo not given)
-3.9%	-5.0%	-42.9%	.	COc1ccc(OCc2cc(C(=O)N3CCN(C4CCCC4)CC3)no2)c(Cl)c1
0.5%	3.5%	-1.0%	5.1	CCOCCCNCc1ccc(OC)cc1
-3.3%	-8.7%	-9.1%	.	O=S(=O)(c1ccc(Cl)cc1)N1CCN(Cc2ccncc2)CC1
-2.0%	-3.1%	13.7%	13.3	FC(F)(F)c1nnc(-c2ccccc2)nc1Sc1ccccc1
-1.1%	-4.5%	.	.	CCN1CCN(c2oc(-c3ccccc3)nc2S(=O)(=O)c2ccc(C)cc2)CC1
0.3%	-9.4%	2.2%	6.5	COc1cccc(/C=C/C(=O)Nc2ccc3nc4n(c(=O)c3c2)CCCC4)c1OC
-0.9%	3.8%	-1.7%	0.4	Cc1nnc(N/N=C/c2ccc(O)c([N+](=O)[O-])c2)[nH]c1=O
-16.4%	-4.9%	-8.6%	3.0	CCOC(=O)c1sc(NC(=O)CSc2nc(-c3ccco3)cc(C(F)(F)F)n2)c(C#N)c1C
0.7%	12.8%	7.8%	-17.5	CCS(=O)(=O)Nc1ccc2c(c1)N(C(C)=O)c1ccccc1CC2
-5.4%	9.0%	-5.2%	-1.9	O=C(O)c1ccc(Cl)c(S(=O)(=O)Nc2cccc(C(=O)Nc3cccc(C(F)(F)F)c3)c2)c1
-0.3%	-8.8%	15.4%	.	O=C(c1cc(COc2cccc3cnccc23)on1)N1CCC(c2ccccc2Cl)C1 (stereo not given)
-1.0%	0.3%	-8.3%	6.1	COc1ccc(CNc2nc3nc(-c4ccccc4)cc(=O)n3[nH]2)cc1OC
-0.6%	-1.7%	-3.6%	0.5	CCOC(=O)CN=C/C(C(=O)Nc1nccs1)=C(/C)O
3.9%	-13.4%	-1.9%	.	N#Cc1nc(-c2ccccc2Cl)oc1N1CCN(C(=O)c2ccco2)CC1
1.6%	3.4%	0.4%	.	CCOc1ccc(CCNC(=O)Nc2ccccc2)cc1OCC

# Following part.
Rango complex inh	Rango release inh	miR-21 FLuc	GLA inh pH 4.5	Molecule
-4.3%	30.8%	11.2%	-2.1	CNCc1c(OCc2ccccc2F)ccc2ccccc12
2.0%	9.7%	.	.	O=C(N/C(=C/c1ccccc1Cl)C(=O)N1CCCCC1)c1ccco1
8.7%	-1.0%	.	.	Cc1c(Cc2ccccc2)sc(NC(=O)Cc2ccccc2)c1C(N)=O
1.1%	22.8%	-7.4%	-6.3	COc1ccccc1-n1c(SCC(=O)N2CCCC2)nc2cccnc21
-1.0%	2.6%	?	9.4	CN(c1ccccc1)P(=O)(N(C)c1ccccc1)N(C)c1ccccc1
3.8%	-14.2%	-5.7%	6.3	Cn1c(=O)[nH]c(=O)c2c1nc(SCCN1CCOCC1)n2Cc1ccccc1
-0.4%	5.2%	.	.	O=C(CN1C(=O)NC(Cc2ccccc2)C1=O)Nc1ccc(F)c(F)c1F (stereo not given)
-4.2%	-0.7%	-17.9%	-0.5	COc1ccccc1C1C2CCCCC2(O)CCN1CC(=O)Nc1ccccc1 (stereo not given)
-4.2%	-13.8%	-16.5%	6.2	O=C(Cn1nc(-c2ccc(N3CCOCC3)c([N+](=O)[O-])c2)c2ccccc2c1=O)N1CCCCC1
-4.0%	3.2%	0.7%	8.9	CC(C)(C)C(=O)CN1CCN(S(=O)(=O)c2ccc(F)cc2)CC1

# 2 compounds drawn at random from the list so far:
Rango complex inh	Rango release inh	miR-21 FLuc	GLA inh pH 4.5	Molecule
8.7%	-1.0%	.	.	Cc1c(Cc2ccccc2)sc(NC(=O)Cc2ccccc2)c1C(N)=O
2.0%	9.7%	.	.	O=C(N/C(=C/c1ccccc1Cl)C(=O)N1CCCCC1)c1ccco1
